Screens as filed in PubChem BioAssay.
Bead autofluor: compound fluorescence in toxin protease inhibitor counterscreen. fluorescence intensity (concentration not given with the values). AID 624483. compound autofluorescence counterscreen, microsphere flow cytometry; active compounds read high. 360,000 compounds, 3.1% hits;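 active = at least 3 SD above the mean of all compounds, about 16000 in these data; inconclusive = too few beads counted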;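 note: 100 nL of 1 mM stock went into each well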
PrP 5UTR inh: suppresses PrP 5' UTR mRNA reporter expression; cell-based PrP 5' UTR mRNA reporter, plate reader; inhibition, % (no concentration beside the values); 340,000 compounds, 0.35% hits;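 active = every replicate at 50% or more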;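 note: 0 = median of the neutral control wells; tested in H4 reporter cells; numbers are from one replicate; inactives centre near -14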
Sa RN4220 lethal: kills Staphylococcus aureus RN4220. S. aureus RN4220 growth, OD600, 16 h. inhibition, % (no concentration beside the values). 330,000 compounds, 0.33% hits;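 active = z-score of -3 or lower and OD600 up to 0.18 on both plates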;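 note: plate controls were untreated cells for no effect and reference antibiotic for full effect; stock transfer was 100 nL into about 80 µL; one replicate is shown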
BJeLR viability: BJeLR cell viability loss; inhibition, % (test concentration not listed); 300,000 compounds, 0.17% hits; BJeLR (HRASV12) viability, CellTiter-Glo ATP luminescence, 48 h; reference of the scale not given here; AID 1554;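 active = replicate mean above 50%; inconclusive = above 50% but judged a plate artefact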;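 note: 50 nL library stock added to about 25 µL; numbers are from one replicate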
Mtb hypoxia rep: Mtb hypoxia fluorescent reporter inhibition; M. tuberculosis hypoxia-regulated fluorescent reporter, fluorescence; fluorescence inhibition, % (concentration not given with the values); 300,000 compounds, 0.1% hits;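 active = 35 to 45% if threefold the growth effect, above 45% if 1.5-fold the growth effect; inactive = the rest, general growth blockers included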;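 note: wells of about 50 µL received 100 nL stock; 0% = vehicle wells and 100% = reference inhibitor wells; whole bacteria with a GFP reporter of the hypoxia response; strong numbers were not always called active; many hits fall short of the cut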
Sa ugtP lethal: kills S. aureus RN4220 lacking UgtP | S. aureus RN4220 ugtP deletion, OD600 growth, 16 h; some inactives read as strong as hits | growth inhibition, % (no concentration beside the values) | 330,000 compounds, 0.54% hits;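 active = z-score under -3 and OD600 up to 0.15 on both plates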;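 note: plate controls were untreated wells for no effect and antibiotic for full effect; wells of about 80 µL received 100 nL stock; the first replicate is given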
Mtb hypoxia rep growth: also measured in Mtb hypoxia rep; calls as there; growth inhibition, %; measured here: M. tuberculosis growth (absorbance);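 0% = vehicle and 100% = reference antibiotic; read after six days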
Active calls of the source: *; ? = inconclusive; · = no result given.

SMILES	Bead autofluor	PrP 5UTR inh	Sa RN4220 lethal	BJeLR viability	Mtb hypoxia rep	Mtb hypoxia rep growth	Sa ugtP lethal
O=C(Cc1ccc(F)cc1)NCCS(=O)(=O)N1CCN(c2cccc(Cl)c2)CC1	·	-20	0.4	0	-7	-9	0
CCCOc1ccc(Cn2c(O)cc(=O)[nH]c2=O)cc1	2950	-17	-0.3	-1	4	-9	-10
CC1OC(Nc2ccc(N=Nc3ccccc3)cc2)C(O)C(O)C1O (stereo not given)	2203	-50	5.0	1	-6	6	-11
O=C1CC(c2ccccc2)Cc2nc3nc(C(F)(F)F)nn3cc21 (stereo not given)	10412	-36	-0.1	-2	14	15	5
CCCCC(=O)NCc1ccc(F)cc1	2154	-17	-0.7	-9	·	·	1
Fc1ccc(/C=N/NC(=S)Nc2ccc(Cl)cc2Cl)cc1	4044	-20	·	15	·	·	·
CC(C)(C)Nc1nc(SCC(=O)Nc2ccccc2)nc(N2CCOCC2)n1	3526	-38	4.3	-27	0	9	7
CC(NC(=O)c1nc[nH]c1C(=O)NC1CCN(C(=O)OC(C)(C)C)CC1)C(=O)OCc1ccccc1 (stereo not given)	·	·	5.8	·	1	-3	0
Cc1ccc(SCCN)cc1C	2409	-12	-0.7	2	-4	4	-3
O=c1nc2n(c3ccc([N+](=O)[O-])cc13)CCCCC2	4392	-1	7.2	6	6	8	7
COc1ccc(-c2cc(=Nc3ccc(C)cc3)c3ccccc3o2)cc1	3771	10	-16	-2	3	2	21
COc1cc(C(=O)OCC(C)=O)c([N+](=O)[O-])cc1OC	4388	-12	9.8	2	11	2	6
CC(c1ccccc1)n1c(N2CCNCC2)nc2c1c(=O)[nH]c(=O)n2C (stereo not given)	3133	0	3.9	6	5	-1	12
Cc1ccc(S(=O)(=O)N(NC2=NS(=O)(=O)c3ccccc32)C(=O)c2ccccc2)cc1	1971	-6	5.9	10	10	3	4
O=S1(=O)N=C(N2CCc3ccccc3C2)c2ccccc21	3909	-9	-3.2	-3	-6	9	-9
Cc1ccc(-n2nc3c(N4CCC(C(=O)N5CCN(C)CC5)CC4)nnc(C)c3c2C)cc1	10595	-4	0.6	-1	-1	-2	6
Nc1c(C(=O)N/N=C/c2cccnc2)cnn1-c1ccccc1	2530	-12	·	-6	·	·	·
COc1cc(OC)c(NC(=O)C2CCCO2)cc1Cl (stereo not given)	4178	4	·	2	·	·	·
O=C(CNC(=O)c1ccco1)OC(C(=O)c1ccccc1)c1ccccc1 (stereo not given)	4717	-5	-0.9	·	·	·	4
Cn1c(=O)oc2cc(S(=O)(=O)N3CCN(c4cccc(Cl)c4)CC3)ccc21	22890*	-11	1.4	1	-4	2	-5
COc1ccc(CNC(=S)NCc2ccc(Cl)cc2)cc1OC	5012	-10	-1.2	3	7	4	-1
Cc1ccc(C(=O)/C=C/c2ccc(F)cc2)o1	1906	-27	7.4	-6	5	-1	1
CCOc1ccccc1N1C(=O)CN(Cc2ccc(OC)c(OC)c2)C1=S	4137	·	10	8	-11	8	-3
COc1ccc(NC(=O)COC(C)=O)cc1Cl	2347	0	0.7	10	-3	2	-4
COc1ccc(C(CC(=O)N2CCCC2)c2ccc(F)cc2)cc1 (stereo not given)	3610	-15	3.7	2	3	5	5
CCOc1cc(C(=O)OCc2ccc([N+](=O)[O-])cc2)ccc1OCC(=O)N1CCOCC1	6076	-10	0.8	1	4	-1	4
Cc1cccc(N2CCN(C(=O)c3ccc(NC4=NC5CS(=O)(=O)CC5S4)cc3)CC2C)c1 (stereo not given)	5224	-25	6.0	0	-7	-7	6
CCOC(=O)C1=C(C)C(c2ccccc2O)NC(=O)N1 (stereo not given)	19487*	-14	3.9	-6	9	10	-3
COc1ccc(N(CC(=O)NCC(C)C)S(=O)(=O)c2ccccc2)cc1	3982	-32	6.1	-3	2	0	2
CCc1ccc(Nc2cc(C)nc3nc(C)nn23)cc1	4431	-3	-2.1	-4	·	·	5
COc1cc(C2NC(=S)NC(O)(C(F)(F)F)C2C(=O)c2cccs2)cc(OC)c1O (stereo not given)	2407	-12	-2.4	5	-3	-4	4
CC(=O)Nc1ccc(S(=O)(=O)N(C)c2nc3ccccc3nc2Cl)cc1	4257	-18	-1.9	1	0	0	-5
O=C(Oc1cccc(N2C(=O)CCC2=O)c1)C1CC(=O)N(c2ccc(Br)cc2)C1 (stereo not given)	6539	-17	0.5	-6	0	5	7
CCCC(=O)Nc1nc(C(=O)OCC)cs1	6895	-28	7.8	-6	9	2	17
Oc1ccc(/C=N/N(c2ccccc2)c2ccccc2)cc1O	5890	-13	·	1	·	·	·
O=C(COc1ccc(-n2cnnn2)cc1)N1CCN(c2ccc(F)cc2)CC1	3408	-2	5.5	-1	8	1	7
Cc1ccc2c(N)c(C(=O)c3ccccc3)sc2n1	?	-61	1.6	0	-6	12	7
CCOC(=O)/C(=C\C=C\N1CCOCC1)C(C)=O	2440	-10	3.2	-4	-5	-10	-1
CC(=O)c1ccc(NC(=O)C(C)OC(=O)c2ccc3c(c2)nc(C)n3-c2ccccc2)cc1 (stereo not given)	2462	-11	-1.7	-4	-7	-2	45
COc1ccc(NC(=O)COc2ccc(S(=O)(=O)N3CCOCC3)cc2C)cc1OC	5748	-17	1.9	10	6	3	13
Cc1cc2[nH]c(=S)[nH]c2cc1C	2011	-14	1.9	0	13	15	11
COc1ccccc1NC(=O)c1cc(C)nc2ccccc12	2607	-28	2.6	3	9	1	-1
COCCCNC(=O)C1CC(=O)N(C2CCCC2)C1 (stereo not given)	5871	-29	1.1	-6	8	0	3
CCCCN(Cc1nc2ccccc2c(=O)[nH]1)C(=O)CN1C(=O)NC2(CCCCC2)C1=O	3466	-15	6.9	·	3	4	3
CCn1c(CNS(=O)(=O)c2ccc(Cl)cc2)n[nH]c1=S	2547	-10	4.3	4	6	1	8

Fetched one by one from above:
SMILES	Bead autofluor	PrP 5UTR inh	Sa RN4220 lethal	BJeLR viability	Mtb hypoxia rep	Mtb hypoxia rep growth	Sa ugtP lethal
COc1cc(C2NC(=S)NC(O)(C(F)(F)F)C2C(=O)c2cccs2)cc(OC)c1O (stereo not given)	2407	-12	-2.4	5	-3	-4	4
CCOc1ccccc1N1C(=O)CN(Cc2ccc(OC)c(OC)c2)C1=S	4137	·	10	8	-11	8	-3

The listing continues.
SMILES	Bead autofluor	PrP 5UTR inh	Sa RN4220 lethal	BJeLR viability	Mtb hypoxia rep	Mtb hypoxia rep growth	Sa ugtP lethal
Cc1nc2cc(-c3ccc(Cl)cc3)nn2c(C)c1CCC(=O)NC(C)c1ccc2c(c1)OCCO2 (stereo not given)	6130	40	9.4	3	-15	8	-6
Cc1ccc(CONC(=O)c2ccccc2Cl)cc1	4440	-40	2.1	·	1	-3	4
O=C(NN=Cc1cccnc1)c1ccc2c(c1)OCCO2	·	·	1.1	·	6	-2	2
COC(=O)[C@H](C(C)C)N(Cc1ccccc1)S(=O)(=O)CCN1CCN(c2ccccc2)CC1	2875	1	1.5	·	-4	-3	2
O=C1[C@@H](c2ccccc2)[C@@H](c2ccccc2)N1c1cccnc1	3342	60*	36	·	-16	1	11
COc1ccccc1Nc1n[nH]c(=S)s1	3835	-48	8.7	2	6	4	8
Cc1cccc(OCC(=O)Nc2ccc3oc(=O)ccc3c2)c1	3664	-15	5.2	0	12	8	-8
COc1ccc(NS(=O)(=O)/C=C/c2ccccc2)cc1	2536	-12	3.2	1	0	1	-4
Cn1c2ccccc2c(=O)c2c(=O)n(C3CCCCCC3)c(C3CCCCC3)nc21	2134	-48	·	-2	·	·	·
O=c1c2c3c(sc2nc2sc(C4CC4)nn12)CCCC3	2437	-127	-15	0	4	4	-14
Cc1oc2c(c1C(=O)Nc1cccc(C(=O)O)c1)CCCC2	9252	-26	5.1	6	20	7	9
CC(C)Oc1ccc(CNC(=O)Cn2c(=O)oc3ccccc32)cc1	5259	-6	-2.0	-11	1	9	9
COc1cccc(-c2nnc(SCC(=O)N(C(C)C)C(C)C)o2)c1	24162*	-14	4.5	8	2	12	1
CNC(=O)C1CC1C(NC(=O)OCc1ccccc1)c1ccccc1 (stereo not given)	·	·	9.7	·	20	11	0
CCN(Cc1nc2ccccc2c(=O)[nH]1)C(=O)c1cccc(NC(=O)c2cccs2)c1	5231	-12	0.4	·	1	5	-7

An excerpt of these results, in CSV form.
Molecule,Bead autofluor,PrP 5UTR inh,Sa RN4220 lethal,BJeLR viability,Mtb hypoxia rep,Mtb hypoxia rep growth,Sa ugtP lethal
COc1ccccc1NC(=O)c1cc(C)nc2ccccc12,2607,-28,2.6,3,9,1,-1
COCCCNC(=O)C1CC(=O)N(C2CCCC2)C1 (stereo not given),5871,-29,1.1,-6,8,0,3
CCCCN(Cc1nc2ccccc2c(=O)[nH]1)C(=O)CN1C(=O)NC2(CCCCC2)C1=O,3466,-15,6.9,·,3,4,3

Additional compounds.
SMILES	Bead autofluor	PrP 5UTR inh	Sa RN4220 lethal	BJeLR viability	Mtb hypoxia rep	Mtb hypoxia rep growth	Sa ugtP lethal
Cc1cc(C(=O)COC(=O)c2n[nH]c3ccccc23)c(C)n1C	5360	-5	4.9	1	5	-4	-5
Cc1ccc(CS(=O)(=O)Cc2ccc(C(=O)NCc3ccco3)o2)cc1	5490	-14	-4.0	2	-4	-2	-6
CS(=O)(=O)c1sc(C(=O)NC(=S)Nc2ccc(OC(F)(F)F)cc2)c2c1C=CCC2	5682	-19	2.5	2	2	4	-5
O=C(NCC(O)CO)c1ccc2[nH]c3ccccc3c2c1 (stereo not given)	2875	-10	3.7	-1	6	15	2
COC(=O)c1cc(NC(=O)CC2SCCNC2=O)cc(C(=O)OC)c1 (stereo not given)	3588	2	4.7	-5	·	·	6
Cc1ccc(NC(=S)N2CCCC2)cc1Cl	6222	-33	5.3	·	-9	-6	4
O=C(CSc1ncn[nH]1)NCc1ccc2c(c1)OCO2	4014	-12	1.6	-19	9	1	-1
CCc1nn(C(C)C(=O)N2CCN(c3ccccc3)CC2)c(=O)c2cc3occc3n12 (stereo not given)	6216	-24	0.9	8	2	-1	-5
CCn1nnc2sc3c(c2c1=O)CCC(C)C3 (stereo not given)	4966	-35	2.2	1	·	·	5
CCOC(=O)N/N=C/c1ccc(OCCSc2ccc(Cl)cc2)c(OCC)c1	9452	-18	·	1	·	·	·
Cc1ccc(S(=O)(=O)NC2=NCN(C)CN2)cc1[N+](=O)[O-]	5688	-22	-0.3	2	5	4	4
O=C(COC(=O)c1cccc(S(=O)(=O)N2CCOCC2)c1)NCc1ccccc1	3011	-12	4.1	·	3	5	5
O=C(O[C@@H](C(=O)O)[C@@H](OC(=O)c1ccccc1)C(=O)O)c1ccccc1	5664	-6	2.7	·	10	11	2
CCc1cccc2c1NC(=O)C2=O	3960	-30	6.1	·	18	10	1
Cc1ccc2nc(-c3ccc(NC(=O)COC(=O)c4ccc(Br)o4)cc3)sc2c1	9822	17	-8.4	·	-9	-6	-1
COc1cccc(NC(=O)C2C3CC4OC(=O)C2C4C3)c1 (stereo not given)	5016	-17	-0.5	3	·	·	11
N#Cc1cnn2ccc(-c3cc(N4CCOCC4)ccc3[N+](=O)[O-])nc12	3277	-12	6.0	-3	13	7	6
OCCCNc1nc(-c2ccc(Cl)cc2)nnc1-c1ccc(Br)cc1	1972	-21	-8.7	3	-9	13	-8
O=C(NCC(=O)N(c1ccc(Cl)cc1)C(C(=O)NC1CCCC1)c1ccncc1)c1ccco1 (stereo not given)	3463	-12	0.2	-2	13	10	7
COc1ccc(C2C=C(c3ccccc3)Nc3nc(CCCO)nn32)cc1 (stereo not given)	·	·	7.6	-15	8	12	0
CN(C)S(=O)(=O)c1ccc(Cl)c(C(=O)Nc2cccc3ncccc23)c1	5025	-13	-3.5	5	16	2	7
CC(C)CCOCC(=O)Nc1cccc(C(=O)O)c1	5304	-34	5.5	7	-1	5	-1
CC(=O)c1ccc(OCC(=O)OC(C)C(=O)NC2CCCCC2)cc1 (stereo not given)	3006	-22	0.4	·	2	-16	-1
CC(=O)OCC(=O)N1CCN(c2ccc([N+](=O)[O-])cc2)CC1	2406	-24	2.8	4	9	6	9
COc1ccc(-c2n[nH]c(C(F)(F)F)c2-c2cc3ccccc3o2)c(O)c1	4743	-19	100*	-3	7	4	100*
COc1ccc(NC(=S)NC(NC(=O)CF)C(Cl)(Cl)Cl)cc1[N+](=O)[O-] (stereo not given)	4424	22	1.5	2	3	2	0
COCCN(CCOC)C(=O)C12CCC(C)(C(=O)C1)C2(C)C (stereo not given)	9890	-15	11	9	5	20	-5
